NS1 inh – blocks influenza NS1 protein function; Potency, µM (top dose mostly 46.1 µM), without a hit: at the top dose activity, positive = more growth; 0.4% of 270,000 active; S. cerevisiae slowed by influenza A NS1, growth recovery by OD600; active means well fitted rising curve with a large enough effect; inconclusive means small, poorly fitted or top-dose-only effect; inactive means no such curve, though single readings can be large or run the other way; note: nearly all actives have a fitted effect of over 50% in size
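OD600 was taken as the measure of yeast growth restored by compound in an NS1-expressing S. cerevisiae strain. Cells had been washed out of glucose medium and diluted 1:100 into galactose -URA medium, pH 6.0.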
StopGo reporter – lowers the luciferase signal of an FMDV 2A StopGo reporter. human cells with a luciferase reporter of 2A StopGo recoding; control for the full effect not named in the record. Potency, µM (doses to about 57.9 µM), without a hit: at the top dose signal change, negative = less light. 1.2% of 410,000 active; active = well fitted falling curve with a large enough effect; inconclusive = small, poorly fitted or top-dose-only effect; inactive = no such curve, though single readings can be large or run the other way; tested in HEK293T cells; note: % is set by controls: 0 for no effect and ±100 for the full control effect; nearly all actives have a fitted effect of over 45% in size; luciferase light after 4 h
RE007 growth inh – less growth of the S. pombe RE007 Vpr strain | S. pombe RE007 Vpr strain, BacTiter-Glo ATP luminescence, 24 h; control for the full effect not named in the record | Potency, µM (highest dose often 92.2 µM), inactives show top-dose activity change, negative = less growth | 0.21% of 360,000 active; active = well fitted falling curve with a large enough effect; inconclusive = small, poorly fitted or top-dose-only effect; inactive = no such curve, though single readings can be large or run the other way;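 note: % is set by controls: 0 for no effect and ±100 for the full control effect; nearly all actives have a fitted effect of over 50% in size; the assay follows cell death caused by Vpr and the record does not say whether a fall means rescue or toxicity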
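Fission yeast strain RE007, carrying one chromosomally integrated HIV-1 vpr copy, was seeded at OD 0.01 in PMG+AL medium with 23 nL pinned compound. After 24 h at 30 °C and 99% humidity, viability was read by BacTiter-Glo luminescence.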
* = called active by the depositor; u = inconclusive; x = not tested or not shown; [ ] = another dose, or the depositor's remark. Potency is the fitted concentration of half-maximal effect.

Sample of the layout, 2 compounds:
SMILES	NS1 inh	StopGo reporter	RE007 growth inh
COC1=CC(=O)OC(c2cccc(OC)c2)C1 (stereo not drawn)	x	-6%	-2%
COc1cc(C(C)=O)ccc1OC(=O)N1CCOCC1	x	3%	6%

This part in full, from the first entry:
SMILES	NS1 inh	StopGo reporter	RE007 growth inh
COC1=CC(=O)OC(c2cccc(OC)c2)C1 (stereo not drawn)	x	-6%	-2%
COc1cc(C(C)=O)ccc1OC(=O)N1CCOCC1	x	3%	6%
O=C(NC1CCCCC1)C(c1ccnc2ccccc12)N1CCOCC1 (stereo not drawn)	x	-18%	-15%
O=[N+]([O-])c1ccc(CN2CC(N3CCCC3)CS2(=O)=O)cc1 (stereo not drawn)	x	-19%	u
Nn1c(SCC(=O)N2CCCC2)nnc1-c1cccs1	x	28%	-13%
COc1cc(-c2cc3nc(NCc4ccco4)ccn3n2)cc(OC)c1OC	x	0%	-19%
Cc1cccc(NC(=O)COC(=O)CN2C(=O)c3ccccc3C2=O)c1	x	-24%	-4%
Cc1ccc2c(c1)c1c3n2CCN(CCC#N)C3CCC1 (stereo not drawn)	x	-28%	12%
OC(c1cccc(CN2CCCCC2)c1)c1ncc(-c2cccc3ccccc23)[nH]1 (stereo not drawn)	x	-20%	-7%
CCc1nc2c(OCc3ccc(C#N)cc3)cccn2c1N(C)C(=O)c1ccco1	x	-18%	-7%
CN(C(=O)c1cccc(NC(=O)Cc2ccc(NC(=O)C3CCCN(C(=O)CCc4ccccc4)C3)cc2)c1)C1CCCC1 (stereo not drawn)	x	u	4%
CCCn1cnnc1CNC(=O)[C@H]1O[C@@H](n2ccc(N)nc2=O)[C@H](O)[C@@H]1O	x	-15%	1%
O=C1NC[C@H](Cc2ccc(O)cc2)N(CCc2cccc(F)c2)C1=O	x	-6%	71%
CCOc1ccc(CCN2C(=O)C(=O)N([C@@H](Cc3ccc(O)cc3)CN3CCC[C@H]3CN3C(=O)C(=O)NC[C@@H]3Cc3ccc(O)cc3)C[C@@H]2Cc2ccccc2)cc1	x	4%	16%
COc1ccc(N2CCN(C(=O)COC(=O)c3nc(Cl)ccc3Cl)CC2)cc1	x	-11%	6%
CC(C)(C)NC[C@@H](O)COc1cccc2c1CCCC2=O	x	-12%	1%[18.4 µM]
COc1ccc(CNC(=O)[C@@H]2CC=C[C@@H]3CCN(C4CC4)C(=O)[C@@H]32)cc1	x	5%	8%
COc1ccc(OC)c(-c2nn(-c3ccccc3)cc2C(=O)NC2(C)CCS(=O)(=O)C2)c1 (stereo not drawn)	x	-1%	23%
CC12CCC(=O)N1C(C(=O)Oc1cccc(F)c1)CS2 (stereo not drawn)	x	-18%	-4%
COc1ccc(-c2coc3c(C(=O)Nc4cccc(C(C)=O)c4)cccc23)c(C)c1	x	0%	-6%[18.4 µM]
CCCCc1c(-c2ccccc2Br)ncn1CCc1ccccc1OC	x	u	-8%
CCOC(=O)C1(C)CCN1C(=O)c1ccc(F)c(Cl)c1 (stereo not drawn)	x	-19%	-2%[18.4 µM]
COc1ccc(-c2csc(NCCc3nc4cc(Cl)c(N5CCCCC5)cc4n3CCOCCO)n2)cc1	x	u	-5%
Cc1nc(C(F)(F)F)ccc1C(=O)N1CCC1(C)C(=O)NS(=O)(=O)c1ccc(C(C)(C)C)cc1 (stereo not drawn)	x	-16%	8%
CCCNC(=O)c1cc(C2CCCN(C(=O)c3cc(F)ccc3C)C2)on1 (stereo not drawn)	x	-6%	6%
O=C(NCc1ccccc1F)C1CC(=O)N(Cc2ccco2)C1 (stereo not drawn)	x	-7%	9%
CCNC(=O)C1CCCN(C(=O)c2ccc3c(c2)OCO3)CC1 (stereo not drawn)	x	-16%	-19%
CC1(C(=O)NS(=O)(=O)c2cccc(OC(F)F)c2)CCN1C(=O)C1CCCCC1 (stereo not drawn)	x	-11%	5%
N#Cc1ccc(C(=O)N2CCC3CC2c2cc(-c4ccccc4)ccc23)cc1 (stereo not drawn)	x	-27%	-17%
O=C(Nc1ccc(Oc2ccccc2)cc1)c1csc([C@H]2C[C@H](O)[C@@H](CO)O2)n1	x	7.9µM*	14%[18.4 µM]
Cc1ccc(CN2CCC[C@]3(N[C@H](c4ccc(C)cc4)[C@@H]4C(=O)N(Cc5ccccc5)C(=O)[C@@H]43)C2=O)cc1	x	-8%	5%
COc1cccc(-c2cccc(-c3nc(C(=O)NCCCN4CCOCC4)cc4c3[C@H](CCO)N(S(=O)C(C)(C)C)C4)c2)c1 (stereo partly drawn)	x	-24%	-17%
C=CCn1cc(C(=O)NCCCOC)c(=O)c2cc(S(=O)(=O)N3CCC(C)CC3)ccc21	-2%	-14%	-4%
Cc1c(NC(=O)N(C)c2ccccc2)c(=O)n(-c2ccccc2)n1C	7%	-2%	-9%
COc1ccc(N(CC(=O)Nc2ccc(C)c(C)c2)S(=O)(=O)c2c(C)noc2C)cc1	10%	u	-16%
C[C@H](NC(=O)c1nc[nH]c1C(=O)N1CCN(c2ccccc2)CC1)C(=O)OCc1ccccc1	2%	-14%	1%
COc1ccc(/C=N/Nc2cc(N3CCOCC3)ncn2)c(OC)c1	3%	-12%	-17%
N=c1n(CCN2CCCCC2)c2ccccc2n1CC(=O)c1cccc([N+](=O)[O-])c1	12%	-25%	-20%
CC(C)C[C@H](NC(=O)N1CCn2c1nc1ccccc12)C(=O)NCc1ccccc1	-28%	-14%	4%
CCOC(=O)C1=C(N)n2c(s/c(=C\c3cccnc3)c2=O)=C(C#N)C1c1cccnc1 (stereo not drawn)	-9%	-12%	4%
O=C(CCN1N=C(c2ccccc2)CCC1=O)NCCCN1CCOCC1	11%	-6%	1%
O=C(Nc1cccc(-n2cccn2)c1)C1CCCN(Cc2ccccc2F)C1 (stereo not drawn)	-2%	u	-20%
Cc1ncc(CO)c2c1Oc1nc(-c3ccccc3F)nc(SCC(=O)N(C)c3ccccc3)c1C2	u	-13%	-4%
CCc1sc(C(=O)NCCCn2ccnc2)cc1Br	10%	-15%	9%
c1csc(Cc2nc(-c3ccc(-n4cccc4)cc3)no2)c1	8%	2%	-6%

Arranged by SMILES length (lowest first): six of the compounds above
SMILES	NS1 inh	StopGo reporter	RE007 growth inh
CCc1sc(C(=O)NCCCn2ccnc2)cc1Br	10%	-15%	9%
c1csc(Cc2nc(-c3ccc(-n4cccc4)cc3)no2)c1	8%	2%	-6%
COc1ccc(/C=N/Nc2cc(N3CCOCC3)ncn2)c(OC)c1	3%	-12%	-17%
C=CCn1cc(C(=O)NCCCOC)c(=O)c2cc(S(=O)(=O)N3CCC(C)CC3)ccc21	-2%	-14%	-4%
Cc1ncc(CO)c2c1Oc1nc(-c3ccccc3F)nc(SCC(=O)N(C)c3ccccc3)c1C2	u	-13%	-4%
Cc1ccc(CN2CCC[C@]3(N[C@H](c4ccc(C)cc4)[C@@H]4C(=O)N(Cc5ccccc5)C(=O)[C@@H]43)C2=O)cc1	x	-8%	5%

Later entries
SMILES	NS1 inh	StopGo reporter	RE007 growth inh
CC1CCN(S(=O)(=O)c2ccc3c(c2)N(CC(=O)NCCCN2CCCC(C)C2)C(=O)CO3)CC1 (stereo not drawn)	-6%	2%	-5%
COc1ccc(OC)c(CN2CCN(Cc3cc(OC)c(OC)c(OC)c3)CC2)c1	2%	3%	-5%
CC1CCCC(N2CCN(C(=O)c3ccc(F)cc3)CC2)C1 (stereo not drawn)	1%	-1%	-1%
O=C(NCCc1c[nH]c2ccccc12)c1ccco1	-6%	34%[activator]	-16%
COc1ccccc1N1CCN(CC(=O)Nc2cc(C)nn2-c2nc(C)cc(C)n2)CC1	-4%	-13%	5%
Cc1nc(-c2ccc(S(=O)(=O)Nc3cccc(Cl)c3)cc2)co1	-9%	22%	18%
CN(CCNC(=O)C1CC(=O)N(C2CCCC2)C1)Cc1ccccc1 (stereo not drawn)	12%	-19%	-7%
COc1ccc(NC(=O)c2sc3ncnc(N4CCN(c5ccccn5)CC4)c3c2C)cc1Cl	-100%	u	-24%
CC(=O)N1CCOc2ccc(S(=O)(=O)N3CCCCC3)cc21	5%	9%	5%
CC(C)CCNC(=O)Cn1c(NCCC(C)C)nc2c1c(=O)n(C)c(=O)n2C	-13%	-24%	-4%
COc1ccccc1C(=O)Nc1c[nH]c(=O)[nH]c1=O	4%	-3%	4%
Cn1c(CSCc2ccc(F)cc2)n[nH]c1=S	8%	-5%	-4%
NNC(=O)C1COc2cc3ccccc3cc2O1 (stereo not drawn)	u	-15%	-2%
CC(Sc1ccc(Cl)cc1)C(=O)NNC(=O)c1ccccc1O (stereo not drawn)	-58%	24%	8%
COc1ccc(NC(=O)N(CCCN2CCOCC2)Cc2cccnc2)c(OC)c1	20%	-1%	-19%
C/C=C(\C)CN1CCC(Oc2ccc(C(=O)NCc3ccccn3)cc2)CC1	10%	-8%	-3%
CCC(=O)N1c2ccc(S(=O)(=O)N3CCCC3)cc2CC1C (stereo not drawn)	10%	-9%	26%
O=C(Cc1ccccc1)NCC(=O)OCc1cccc([N+](=O)[O-])c1	-5%	-12%	9%
COc1ccc(NC(=O)N(Cc2ccc(C)cc2)Cc2ccccn2)c(OC)c1	-57%	-7%	9%
COc1ccccc1C(=O)Nc1nc2ccccc2s1	-14%	1.8µM*	u
COc1ccc(C#Cc2ccc3c(c2)c(=O)c2ccccc2n3C)cc1	12%	26%	-22%
O=C(N/N=C/c1cccc(O)c1)c1ccc2c(c1)OCCO2	-3%	57%[activator]	-1%
CC1=C(C(=O)Nc2cccc(C(=O)NCc3ccc(F)cc3)c2)SCCO1	-3%	-18%	-13%
COc1ccc(OC)c(Nc2ncnc3ccc(Br)cc23)c1	-4%	-26%	15%
COc1ccccc1NS(=O)(=O)c1ccc(-c2cc(C)no2)s1	-11%	-3%	-2%
O=C(CSc1ccc2nnc(-c3cccs3)n2n1)N1CCOCC1	-3%	-12%	-10%
COc1ccc(C(=O)NC(=S)N(C)C2CCCCC2)cc1Br	-21%	6%	6%
O=C(Nc1ccc(S(=O)(=O)Nc2ncccn2)cc1)c1cc([N+](=O)[O-])ccc1Cl	8%	-20%	4%
Cc1cccc(OCC(=O)N(Cc2ccc(F)cc2)C2CCS(=O)(=O)C2)c1C (stereo not drawn)	3%	18%	-7%
Cc1cc(OCC(=O)NCc2ccncc2)c2c3c(c(=O)oc2c1)CCC3	2%	-1%	17%
CSC1=NCCN1C(=O)C(C)(C)Oc1ccc(Cl)cc1	-37%	-20%	9%
CCc1cc(C(=O)NCC2CCCO2)sc1C (stereo not drawn)	7%	30%	1%
Cc1cc(Cl)c2oc(C(=O)NC3CCC(O)CC3)c(C)c2c1 (stereo not drawn)	-8%	55%[activator]	-7%
Cc1ccc(-c2nc(C(=O)NC3CCCCCC3)no2)cc1	-92%	50%[activator]	-11%
CN1CCN(C(=O)c2ccc3c(c2)N(Cc2cccc(Cl)c2)C(=O)c2ccccc2S3=O)CC1 (stereo not drawn)	17%	-10%	-6%
O=C(NC1CCCC1)c1cc(=O)[nH]c2ccccc12	7%	15%	-4%
Cc1cc2[nH]c(=O)c(=O)[nH]c2cc1S(=O)(=O)Nc1cccc(C)c1C	9%	6%	13%
CC(CNC(=O)C1CCCN(S(=O)(=O)N2CCOCC2)C1)c1ccccc1 (stereo not drawn)	2%	-17%	6%
COc1ccc(Br)cc1CNC(=O)C1CCC(=O)N1C(C)C (stereo not drawn)	7%	-12%	0%
O=C(O)CCCCCCCCc1cn(CC2CCCCC2)nn1	6%	-9%	-7%
NC(=O)C1CCN(CCCNC2CC(=O)N(Cc3ccc(N4CCCC4=O)cc3)C2=O)CC1 (stereo not drawn)	-7%	-2%	8%
COc1ccc(Cl)cc1C(=O)Nc1ccc2c(c1)OCCO2	-26%	60%[activator]	-10%
CCN1CCN(S(=O)(=O)c2ccc(Cl)c(C(=O)Nc3ccc(C(=O)N(CC)CC)cc3)c2)CC1	-8%	-5%	0%
COCCNC(=S)N1CCN(S(=O)(=O)c2ccc(Cl)s2)CC1	-2%	-14%	4%
N=c1c(S(=O)(=O)c2ccc(Br)cc2)cc2c(=O)n3ccccc3nc2n1C1CCCC1	23%	-7%	6%
O=C(NCCN1CCOCC1)c1ccc(CS(=O)(=O)c2ccc(Br)cc2)o1	u	-15%	1%
NS(=O)(=O)c1ccc(CCNC(=O)CN2C(=O)COc3ccc(S(=O)(=O)N4CCCC4)cc32)cc1	7%	3%	8%
O=[N+]([O-])c1ccccc1S(=O)(=O)N1CCN(c2ccccn2)CC1	8%	-5%	-15%
COc1ccc(NC(=O)C(NC(=O)c2ccc(C)cc2)c2ccccc2)cc1 (stereo not drawn)	-2%	20%	7%
CCN1C(=O)[C@H]2[C@@H](c3ccc(C)cc3)N3C(=O)N(c4ccc(C(F)(F)F)cc4)C(=O)[C@@]3(CC)[C@H]2C1=O	18%	-17%	3%
Cc1cc2nnc(SCC(=O)NCc3ccco3)n2c2ccccc12	10%	-16%	14%
Cc1ccc(-n2ccc(=O)c(C(=O)Nc3ccc(S(=O)(=O)Nc4onc(C)c4C)cc3)n2)cc1	-30%	-3%	-10%

Screening results (PubChem BioAssay)

Some of the compounds tested; count on the stated rates, not on these rows.
